VACV mCherry inh – qHTS for Stage-Specific Inhibitors of Vaccinia Orthopoxvirus: mCherry Reporter Primary qHTS. Vaccinia virus mCherry reporter infection, fluorescence; about a quarter of the inactives have no number. Potency, µM (doses to about 36.5 µM), for the others: at the highest dose activity change, negative = inhibition, actives largely listed as inhibitors. 310,000 tested, 0.63% active; active = well fitted inhibition curve with a large enough effect; inconclusive = small, poorly fitted or top-dose-only effect; inactive = no such curve, though single readings can be large or run the other way; tested in A549 cells; note: nearly all actives have a fitted effect of over 35% in size; inactives centre near -10
VACV Venus inh – qHTS for Stage-Specific Inhibitors of Vaccinia Orthopoxvirus: Venus Reporter Primary qHTS. Vaccinia virus Venus reporter expression, fluorescence. Potency, µM (titrated, usually from 36.5 µM), for the others: at the top dose activity change, negative = inhibition, hits mostly inhibitors. 330,000 tested, 0.46% active. AID 720580, 2013; active means well fitted inhibition curve with a large enough effect; inconclusive means small, poorly fitted or top-dose-only effect; inactive means no such curve, though single readings can be large or run the other way; tested in A549 cells; note: nearly all actives have a fitted effect of over 30% in size; inactives centre near -10
* hit, by the source's call; i = inactive; ? = inconclusive; . = no result given; & = joins results of further samples; [ ] = dose if it differs, or a comment. % is set by controls: 0 for no effect and ±100 for the full control effect; potency is the fitted concentration of half-maximal effect.

Below each compound: VACV mCherry inh	VACV Venus inh
Cc1c(NS(=O)(=O)c2ccccc2)cc(C(C)C)c(O)c1S(=O)(=O)c1ccc(Cl)cc1
    2%	-8%
CC(C)(C)c1ccc(-c2nc(C#N)c(NCCCn3ccnc3)o2)cc1
    -22%	-12%
Cc1nc2ccc(NC(=O)Cc3ccsc3)cc2s1
    .	?
Cc1ccc(S(=O)(=O)N(CC(=O)c2ccccc2)C(=O)N2CCN(C)CC2)cc1
    i	-13%
Cc1ccc(OCCOc2cccc(C=C3C(=O)NC(=O)NC3=O)c2)c(C)c1
    -12%	-9%
CC1CCN(S(=O)(=O)c2ccc3[nH]c(=O)c(=O)[nH]c3c2)CC1
    -12%	-6%
CCOc1cccc(CNCc2ccc(C(=O)O)cc2)c1
    i	2%
COc1cccc(-n2nnnc2S(C)(=O)=O)c1
    ?	?
O=C(Cc1cccc(NC(=O)C2CCCN(C(=O)C3CCCCC3)C2)c1)Nc1cccc(C(=O)N2CCCC2)c1 (stereo not drawn)
    ?	-19%
CC1=NN(C(N)=S)C(=O)C1N=Nc1ccc(Br)cc1 (stereo not drawn)
    -15%	-23%
COc1ccccc1/C=C/C=N/n1c(-c2ccco2)n[nH]c1=S
    -1%	-13%
COc1cc(/C=N/NC(N)=O)ccc1OCC(=O)N1C(C)CCCC1C (stereo not drawn)
    3%	-9%
Cn1cc(/C=C2\SC(=S)N(NC(=O)c3ccccc3Cl)C2=O)c2ccccc21
    -24%	3%
CC(NC(=O)Cc1ccc(-c2ccccc2)cc1)c1ccccc1 (stereo not drawn)
    -13%[1.46 µM]	-27%
O=C1OC(C(=O)Nc2nccs2)Cc2ccccc21 (stereo not drawn)
    .	0%

Single records, as listed above:
`COc1ccccc1/C=C/C=N/n1c(-c2ccco2)n[nH]c1=S` is listed with VACV mCherry inh: -1%; VACV Venus inh: -13%
`CC(C)(C)c1ccc(-c2nc(C#N)c(NCCCn3ccnc3)o2)cc1` is listed with VACV mCherry inh: -22%; VACV Venus inh: -12%

Later entries.
Below each compound: VACV mCherry inh	VACV Venus inh
COc1ccc(Cl)cc1S(=O)(=O)N1CCN(c2ccc(F)cc2)CC1
    -17%	?
O=C(c1cccnc1)N1CCN(S(=O)(=O)c2ccc(S(=O)(=O)N3CCCC3)cc2)CC1
    -11%	-2%
Cc1ccccc1NC(=O)c1c(NC(=O)c2cccs2)sc2c1CCC(C)C2 (stereo not drawn)
    -16%	-6%
COc1ccc(NC(=O)CSc2nnc3ccc(-c4ccccn4)nn23)cc1
    i	-9%
CC(C)c1ccc(-c2nnn(CCC#N)n2)cc1
    -1%	-12%
O=C(CSc1ccccc1)N[C@@H](Cc1ccccc1)C(=O)O
    i	-6%
C/C(=N\NS(=O)(=O)c1c(C)cc(C)cc1C)c1ccncc1
    -14%	-3%
CCN(C(=O)CSc1nc(N)cc(N)n1)C1CCS(=O)(=O)C1 (stereo not drawn)
    -18%	-7%
Cc1ccc2oc(-c3ccc(Cl)cc3)c(O)c(=O)c2c1
    -12%	-13%
COC(=O)[C@@]1(Cc2ccc(F)cc2)[C@H]2c3cc(C(=O)N4CCCC4)n(CC4CC4)c3C[C@H]2CN1C(=O)c1ccccc1
    -16%	-16%
CC(C)NC(=S)N/N=C/c1ccccc1[N+](=O)[O-]
    ?	-10%
CCCc1nc2sc3c(c2c(=O)[nH]1)CCCC3
    i	-7%
O=C(NCc1cccs1)C1CC(=O)N(c2ccc(F)cc2)C1 (stereo not drawn)
    -21%	-18%
CSc1ccc(/C=C/c2ccnc3ccccc23)cc1
    -6%	4%
Cc1cc(C(=O)NC(C)c2ccccc2)c2cc(F)ccc2n1 (stereo not drawn)
    i	-10%

An excerpt of these results, as labelled records:
COc1ccc(Cl)cc1S(=O)(=O)N1CCN(c2ccc(F)cc2)CC1
  VACV mCherry inh: -17%	VACV Venus inh: ?

O=C(c1cccnc1)N1CCN(S(=O)(=O)c2ccc(S(=O)(=O)N3CCCC3)cc2)CC1
  VACV mCherry inh: -11%	VACV Venus inh: -2%

Cc1ccccc1NC(=O)c1c(NC(=O)c2cccs2)sc2c1CCC(C)C2 (stereo not drawn)
  VACV mCherry inh: -16%	VACV Venus inh: -6%

COc1ccc(NC(=O)CSc2nnc3ccc(-c4ccccn4)nn23)cc1
  VACV mCherry inh: i	VACV Venus inh: -9%

The list continues:
Below each compound: VACV mCherry inh	VACV Venus inh
Cc1ccccc1NC(=O)C(=O)c1cn(C)c2ccccc12
    7%	-10%
COc1ccc(N2CCN(C(=O)c3ccc(OCC4CCCO4)cc3)CC2)cc1 (stereo not drawn)
    i	-6%
CCC1CCCCN1S(=O)(=O)c1ccc2c(c1)CCCN2C(C)=O (stereo not drawn)
    4%	-9%
CCOc1ccc(-c2cccc(NC(=O)COc3ccc(Cl)cc3)c2)nn1
    -5%	-23%
CC(=O)Nc1ccc(SC(C)C(=O)NC2CCCC2)cc1 (stereo not drawn)
    -11%	4%
Cc1cccc(NC(=O)NCC(c2ccco2)N2CCCCC2)c1 (stereo not drawn)
    i	-6%
CCOC(=O)c1cnn(-c2cc(Oc3cccc(C)c3)ncn2)c1N
    .	-16%
N=c1n(CCO)c2ccccc2n1Cc1ccccc1F
    -4%	-5%
COc1ccc2[nH]c3c(c2c1)CCN1C(=O)C(CC(=O)NCCN2CCOCC2)C[C@H](C(=O)N2CCOCC2)[C@@]31CCC1CCCC1 (stereo partly drawn)
    i	-20%
Cc1cccc(C)c1OCC(=O)Nn1c(C)nc2ccccc2c1=O
    .	-8%
CCOc1ccc(-n2cc(-c3ccccc3)c3c(Nc4cccc(F)c4)ncnc32)cc1
    -24%	-14%
COc1ccccc1CNC(=O)C1CC2Cn3c(nc4cc(C)c(C)cc43)C2N1C (stereo not drawn)
    i	-26%
C=C(C)Cn1c(SCC)nc2ccccc2c1=O
    -5%&-19%	-1%&-9%
COC(=O)c1c(NC(=O)COC(=O)CCc2ccc(S(=O)(=O)N3CCOCC3)cc2)sc2c1CCC2
    -10%	-21%
Cc1cc(C)n2nc(SC3CCCCN(C(=O)c4ccc(F)cc4)C3=O)nc2n1 (stereo not drawn)
    -18%	-16%
CCOc1ccc(NS(=O)(=O)c2ccc(C(=O)N(C)CCc3ccc(OC)c(OC)c3)cc2)cc1
    -4%	-15%
COC(=O)C1=C(c2ccc(-c3ccccc3)c(F)c2)C[C@@H]2CC[C@H]1N2C(=O)NCCCOC(C)C
    -21%	?
CCCN1C(=O)/C(=C/c2nc3ccccc3c(=O)[nH]2)c2cc(C)ccc21
    -25%	-17%
O=C(NCCc1cccnc1)c1cnn(-c2ncc3c(n2)-c2ccccc2CC3)c1C1CC1
    -24%	-10%
CCNc1nc(NCC)nc(SCC(C)=O)n1
    -8%	-16%
Cc1ccc(C(=O)Cn2cc([N+](=O)[O-])nc2C)cc1
    i	8%
CC(C)CCNC(=O)C1CCCN(S(=O)(=O)c2ccc(F)cc2)C1 (stereo not drawn)
    -17%[1.46 µM]	-20%
O=C(Nc1ccc(N2CCN(C(=O)c3ccccc3)CC2)cc1)c1cccs1
    i	-5%
COc1ccc(CNCc2cc(Cl)ccc2O)cc1
    ?	-20%
O=C(C1=C[C@@H](c2coc3ccccc3c2=O)C[C@@H](OCc2ccc(CO)cc2)O1)N1CCN(Cc2ccc3c(c2)OCO3)CC1
    8%	-21%
O=[N+]([O-])c1ccc(C(c2sc3nc(-c4ccco4)nn3c2O)N2CCN(Cc3ccccc3)CC2)cc1 (stereo not drawn)
    -5%	-7%
CSc1ccc(CN2CCC(C)(Oc3cccc(C#N)c3)C2)cc1 (stereo not drawn)
    1%	-2%
N#CC1=C(N)Oc2n[nH]c(-c3cccnc3)c2C1c1cc(F)ccc1F (stereo not drawn)
    -2%	-10%
Cc1oncc1C(=O)N1CCCC(CO)(Cc2ccc(F)cc2F)C1 (stereo not drawn)
    -8%	-8%
COC(=O)c1cc(CNC(=O)C2CC(=O)N(c3ccc4c(c3)OCCO4)C2)ccc1OC (stereo not drawn)
    -13%	-6%
CCOC(=O)C1CCCN(C(=O)CSc2ccc(Br)cc2)C1 (stereo not drawn)
    3%	8%
Cc1ccc(S(=O)(=O)N2[C@H](CC(=O)c3cccs3)OC[C@@H]2C(C)C)cc1
    i	-26%
CC12CCC(=O)C=C1C=CC1C2CCC2(C)C(O)CCC12 (stereo not drawn)
    -14%	0%
COC(=O)CC1C(=O)NCCN1C(=O)c1ccccc1 (stereo not drawn)
    -19%	-3%
COc1cc2c(cc1OC)CN(C(=S)Nc1c(C)cccc1C)CC2
    -14%	-11%
COc1ccc(NC(=O)N(C)C[C@H]2Oc3ccc(NS(=O)(=O)c4ccc(OC)cc4)cc3C(=O)N([C@H](C)CO)C[C@@H]2C)cc1
    i	-2%
COc1ccccc1NC(C)C(=O)N/N=C/c1cccs1 (stereo not drawn)
    i	-3%
CC(C)c1ccc(S(=O)(=O)c2nnn3c2nc(N2CCCCC2)c2ccccc23)cc1
    -13%	-6%
COc1ccc(CC(=O)OCC(=O)NCc2ccco2)cc1
    i	-12%
O=C(CNS(=O)(=O)c1ccc(Br)cc1)N1CCN(Cc2ccccc2)CC1
    -13%	2%
CC(C)[C@H](NC(=O)c1c(F)cccc1F)C(=O)OCC(=O)NC(=O)NC1CCCC1
    i	-16%
COc1ccc(C2/C(=C(\O)c3ccc4c(c3)OCCO4)C(=O)C(=O)N2CCCN(C)C)cc1 (stereo not drawn)
    -4%	-7%
Cc1cc(C)cc(NC(=O)Nc2nnc(N(C)C3CCCCC3)s2)c1
    -25%	-29%
Cc1c(NC(=O)COC(=O)C23CC4CC(CC(O)(C4)C2)C3)c(=O)n(-c2ccccc2)n1C
    -8%	0%
Cn1c(=O)c2[nH]c(CCCCCc3nc4ccccc4[nH]3)nc2n(C)c1=O
    -7%	-21%
COc1ccc(N2CCN(Cc3nc4ccccc4c(=O)[nH]3)CC2)cc1
    i	-6%
Cc1cc(C)cc(NC(=S)N2CCN(S(=O)(=O)c3ccccc3)CC2)c1
    -21%	-19%
Cc1ccc(C)c(NC(=O)NNC(=O)c2ccc3ccccc3c2O)c1
    i	-13%
CCOC(=O)c1c(NC(=O)c2ccc(S(=O)(=O)N3CCC(C)CC3)cc2)sc2c1CCN(C)C2
    -17%	?
Cc1cc(C)cc(NC(=O)N2CCN(C)c3ncccc32)c1
    0%	-6%
O=c1[nH]c(=O)n(Cc2ccc(F)cc2)c(O)c1C=NCc1cccnc1
    -11%	-2%
Cc1ccc2sc(NC(=O)c3cccc(N4C(=O)CCC4=O)c3)nc2c1C
    -2%	-9%
CCOC(=O)[C@]12CCCC=C1N(Cc1ccccc1)C(=O)[C@H](CC(=O)N1CCCCCC1)C2
    -5%	-2%
CCOc1ccc(/C=N/NC(=O)c2ccncc2)cc1OC
    i	0%
CC(C)CN(C(=O)COC(=O)C1c2ccccc2Oc2ccccc21)C1CCS(=O)(=O)C1 (stereo not drawn)
    i[1.46 µM]	-22%
Cc1cccc(N(C)C(=O)Cn2cnc3nc4c(cc3c2=O)CCCC4)c1
    -10%	-8%
Cc1nn(C(=O)CNS(=O)(=O)c2ccccc2)c(C)c1Sc1ccc(Cl)cc1
    -17%	-11%
CC(Oc1ccccc1)C(=O)N1CCC2(CC1)Oc1ccc(F)cc1C(=O)C21CC(c2cccnc2)=NO1 (stereo not drawn)
    -11%	-17%
O=C(CO/N=C/c1ccccc1OC(F)F)NCc1cccs1
    i	-20%
CC(C)CNC(=O)c1cnn2c(C(F)(F)F)cc(C(F)(F)F)nc12
    -10%	-9%

(more compounds)
Below each compound: VACV mCherry inh	VACV Venus inh
CCC(C)[C@H](NC(=O)[C@@H]1Cc2ccccc2CN1)C(=O)NCc1ccc(OC)cc1 (stereo partly drawn)
    -8%	3%
COc1ccc(-c2nn(CC(=O)NCc3ccccc3)c3c2cnc2ccc(F)cc23)cc1
    -2%	-1%
CCN(CC)CCn1c2c(c(SCC(=O)Nc3cccc4ccccc34)nc1=O)CCCC2
    -21%	-13%
O=C1C=C(C2CCCCC2)C(=O)c2ccccc21
    -14%	-5%
CCOC(=O)c1c(NC(=O)c2cc(-c3ccc(OC)cc3)on2)sc(C)c1C
    -1%	5%
COc1ccc(Nc2cc(C(=O)NCCCN(C)C3CCCCC3)c3ccccc3n2)cc1
    -15%	-22%
Cc1ccc(Cc2c(-c3ccc(F)cc3)nc3c(Cl)cc(C(F)(F)F)cn23)cc1
    -10%	-6%
Clc1cc(Cl)cc(Nc2ncnc(-n3cccc3)n2)c1
    2%	15%
O=C(NCC(c1cccnc1)N1CCN(Cc2ccccc2)CC1)C(=O)Nc1cccc(F)c1 (stereo not drawn)
    -13%	-12%
COc1ccc(S(=O)(=O)N2CCCCC2)cc1C(C)C
    .	-11%
CCOc1ccc(N(Cc2cc3cc(OC)ccc3[nH]c2=O)C(=O)C2CCCO2)cc1 (stereo not drawn)
    .	-11%
Cc1cc(C)c(NC(=O)NC(=O)C(Cl)(Cl)Cl)c(C)c1
    -1%	-4%
O=S(=O)(Cc1ccc(Cl)cc1)c1ccccc1-c1nnc(-c2ccc(Cl)cc2)o1
    -23%	-3%
O=C(CCCOc1ccc(Cl)cc1Cl)NC(Cc1ccccc1)C(=O)O (stereo not drawn)
    i	-14%
COc1ccc(CN2C(=O)c3ccccc3C2c2nnnn2-c2ccc3c(c2)OCCO3)cc1 (stereo not drawn)
    9%	4%
